# H5N1 CPE = MDCK cell protection from H5N1 avian flu. cytopathic effect, luminescence, 72 h; stronger effect = higher value; no value below 0 was filed and about half of the inactive calls have no number; reference of the scale not given here. inhibition, % at 50 µM. hit rate 0.07% among 96,000; in the data active = inhibition above about 25%
# * marks the source's active call; other numbers are inactive results; i = inactive. These rows are one share of the data; rates above refer to the full screens.
# The opening 7 entries (preview)
compound	H5N1 CPE
O=C(OCn1nnc2ccccc2c1=O)C1=COCCO1	i
COc1cc2c(cc1OC)-c1cc(NC3CCCCCCC3)nc(=O)n1CC2	i
CCOC(=O)c1cn2cccnc2n1	i
Cc1cc(C(=O)OCC(=O)c2c(N)n(C)c(=O)n(C)c2=O)c(C)o1	0.1
CCN(CC)S(=O)(=O)c1ccc(-c2nnc(SCC(=O)Nc3nc(C)cs3)o2)cc1	i
CCC(C)NC(=O)C(CCSC)NC(=O)c1ccccc1 (configuration not stated)	i
CCOC(=O)C1=C(C)OC(N)=C(C#N)C1c1cc2ccccc2nc1N1CCCCC1 (configuration not stated)	2.9

# Main list, previewed entries included:
compound	H5N1 CPE
O=C(OCn1nnc2ccccc2c1=O)C1=COCCO1	i
COc1cc2c(cc1OC)-c1cc(NC3CCCCCCC3)nc(=O)n1CC2	i
CCOC(=O)c1cn2cccnc2n1	i
Cc1cc(C(=O)OCC(=O)c2c(N)n(C)c(=O)n(C)c2=O)c(C)o1	0.1
CCN(CC)S(=O)(=O)c1ccc(-c2nnc(SCC(=O)Nc3nc(C)cs3)o2)cc1	i
CCC(C)NC(=O)C(CCSC)NC(=O)c1ccccc1 (configuration not stated)	i
CCOC(=O)C1=C(C)OC(N)=C(C#N)C1c1cc2ccccc2nc1N1CCCCC1 (configuration not stated)	2.9
COc1ccc(C2SCC(=O)N2CCCN(C)C)cc1 (configuration not stated)	i
Cc1c(Cl)cccc1NC(=O)C1NC(=O)CC1c1ccccc1 (configuration not stated)	i
CCc1ccc(N2CC(C(=O)NCc3ccc4c(c3)OCO4)CC2=O)cc1 (configuration not stated)	i
CC(CO)N1CCS(=O)(=O)CC1 (configuration not stated)	0.5
O/N=C/c1ccccc1OCc1ccccc1Cl	i
CCOC(=O)C1=C(c2ccccc2)Nc2ncnn2C1c1cccc(OC)c1OC (configuration not stated)	0.5
CCCN1CCN(C(=O)CN2C(=O)CC(C)(C)S(=O)(=O)c3ccccc32)CC1	0.9
CS(=O)(=O)N(CC(=O)Nc1cccnc1)c1ccc2c(c1)OCO2	i
O=C(Nc1nc2n(n1)C(c1ccccc1)CC(c1ccc(Cl)cc1)N2)c1ccco1 (configuration not stated)	0.6
COc1ccc(C(=O)Nc2ccc(OCC(F)(F)C(F)F)c(C(F)(F)F)c2)cc1OC	i
CCOC(=O)c1[nH]c2ccc(OCC)cc2c1NC(=O)CN1CCC2(CC1)OCCO2	i
Cc1cc(Cl)ccc1NC(=O)CSc1nnc(-c2ccncc2)n1Cc1ccco1	i
COc1ccc(OCC(O)COc2ccc(C(=O)O)cc2)cc1 (configuration not stated)	i
O=c1cc(O)c2c(=O)[nH]c(=O)n(-c3ccccc3)c2[nH]1	1.3
O=C(COC(=O)c1ccccn1)Nc1nccs1	1.6
CCCCCC(=O)Nc1nc(C)c(-c2csc(Nc3ccccc3OCC)n2)s1	i
CC1(C)NC(=O)N(CC(=O)O)C1=O	1.2
O=C1CC(=O)N(CCc2ccc(F)cc2)C(=O)N1	i
COC(=O)COc1ccc(C(=O)OC)cc1	0.7
CC(c1ccco1)N(C(=O)C12CC3CC(CC(C)(C3)C1)C2)c1ccccn1 (configuration not stated)	2.6
Cc1c(C(=O)NC(C)C)oc2c1-c1[nH]ncc1CC2	i
Cc1ccc(C2SCC(=O)Nc3c2c(=O)[nH]n3C2CCOC(C)(C)C2)cc1 (configuration not stated)	i
CCOc1ccc(NC(=O)Nc2cc(C)ccc2F)cc1	i
S=c1oc(-c2ccncc2)nn1CCc1ccncc1	2.5
O=C(NN1C(=O)/C(=C/c2cccnc2)SC1=S)C(c1ccccc1)c1ccccc1	0.1
CCNC(=O)NC(C(=O)OC)C12CC3CC(CC(C3)C1)C2 (configuration not stated)	0.7
C/C(Cl)=C\CNC(C)c1ccccc1 (configuration not stated)	i
O=C(CSc1nnnn1-c1ccccc1)N1CCN(C(=O)c2ccco2)CC1	i
Cc1ccc(-c2[nH]c(=O)n3ccncc23)s1	i
c1ccc(N(c2ccccc2)c2nc(N3CCCC3)nc(-n3ccnc3)n2)cc1	1.9
COc1cccc(NC(=O)NCCCN2CCN(c3ccc(F)cc3)CC2)c1	i
CCN(CC)S(=O)(=O)c1ccc(NC(=O)CN(c2cccc(F)c2)S(C)(=O)=O)cc1	2.8
CC(=O)Oc1ccccc1N1C(=O)c2ccc(C(=O)O)cc2C1=O	i
Cc1ccc(-c2n[nH]c(=S)n2/N=C/c2cc3c(cc2[N+](=O)[O-])OCO3)cc1	1.9
COC(=O)C1=CN(C(C)C)C=C(C(=O)OC)C1c1cc2c(cc1Br)OCO2	i
COc1ccc(CCNc2oc(COc3ccc(F)cc3)nc2C#N)cc1	0.4
Cc1ccccc1CN1C(=O)C(O)(CC(=O)c2ccncc2)c2ccccc21 (configuration not stated)	1.2
COC(=O)C1=C(C)N(C2CCCC2)C(=O)C1(NC(C)=O)C(F)(F)F (configuration not stated)	i
Cc1ccc(S(=O)(=O)N2CCN(Cc3nc4sc(C)c(C)c4c(=O)[nH]3)CC2)cc1	1.0
O=C1CCCC2=C1C(c1ccccc1O)C1=C(CCCC1=O)O2	0.1
COc1ccc(OCc2nnnn2-c2ccccc2)cc1	0.5
CC(C)CCNC(=O)CCCn1c(=O)[nH]c2ccc(Br)cc2c1=O	0.3
CC(C)n1c(-c2ccc(N(C)C)cc2)nc2ccccc21	2.1

# Next records follow:
compound	H5N1 CPE
O=C(O/N=C\c1ccc(N2CCOCC2)c([N+](=O)[O-])c1)c1ccccc1Cl	0.7
CCOc1cc2c(cc1C(C)(C)C)NC(=O)CS2	0.8
CCN(CC)S(=O)(=O)c1cccc(NC(=O)COC(=O)c2cc(C)oc2C)c1	i
O=C(Cn1c(NCCO)nc2ccccc21)c1ccco1	0.8
CCCNC(=O)NS(=O)(=O)c1cnccc1Sc1ccc(Cl)cc1	i
Cc1nc(-c2ccccc2)sc1C(=O)CSc1ccc(F)cc1	i
Fc1ccc(-c2cnc(-c3cccs3)o2)cc1	i
COc1ccc(NC(=O)Cc2ccc(Cl)cc2)cc1NC(=O)c1ccco1	i
O=C(NCc1ccccc1)NC1(C(=O)N2CCN(c3ccccc3)CC2)CCCCC1	0.6
CCOC(=O)C(=CNc1ccccc1C)C(=O)OCC	0.9
CCOC(=O)c1ccccc1NC(=O)C1COc2ccccc2O1 (configuration not stated)	2.9
COc1ccc(Nc2nnc(Cc3ccc(Cl)cc3)c(=O)[nH]2)c(OC)c1	1.2
COc1ccc(C(=O)NCc2cccnc2)cc1S(=O)(=O)N1CCOCC1	0.8
CCCCOc1ccc(-c2nc(-c3cccnc3)no2)cc1	i
CCN(C(=O)COC(=O)c1cc2ccccc2cc1O)C1CCS(=O)(=O)C1 (configuration not stated)	i
CC(C)C(=O)Nc1nnc(CCN2CCCCC2)s1	0.8
CCCC1(c2ccccc2)NC(=O)N(CC(=O)c2[nH]c(C)c(C(=O)OCC)c2C)C1=O (configuration not stated)	i
O=c1[nH]c2ccc(Br)cc2c(-c2ccccc2)c1N1CCOCC1	4.7
O=C(O)c1c[nH]c2ccc(S(=O)(=O)N3CCN(c4ccc(F)cc4)CC3)cc2c1=O	i
c1cncc(-c2nnc(SCc3nc4ccccc4[nH]3)o2)c1	1.7
Cc1ccc(CNC(=O)CCNC(=O)Cn2ccc3ccccc3c2=O)cc1	i
COC(=O)c1ccccc1NC(=O)Cn1cc(Br)cn1	i
O=C(Cn1c(NCCO)nc2ccccc21)NCCc1ccc(F)cc1	0.3
Cc1ccc(S(=O)(=O)NC(=O)NCc2ccccn2)cc1	i
CCN(CC)CCn1c2ccccc2c2nc(C)sc21	i

# The last 2 entries of the part before come first, to join the parts.
molecule,H5N1 CPE
Cc1ccc(S(=O)(=O)NC(=O)NCc2ccccn2)cc1,i
CCN(CC)CCn1c2ccccc2c2nc(C)sc21,i
Cc1cc(=O)[nH]c(SCC(=O)Nc2cccc(C(F)(F)F)c2)n1,i
CCOC(=O)CN(c1cccc(C(C)=O)c1)S(C)(=O)=O,1.0
CC(C/C=N/NC(=O)COc1cc(Cl)ccc1Cl)c1ccccc1 (configuration not stated),i
CCOC(=O)CN1CC23C=CC(O2)C(C(=O)NCCc2ccccc2)C3C1=O (configuration not stated),0.6
c1ccc2c(c1)nc(Nc1ccc3c(c1)OCO3)c1nnnn12,1.3
O=C(c1ccco1)N1CCN(C(=O)C2CCN(S(=O)(=O)Cc3ccccc3)CC2)CC1,0.4
CCSc1nnc(N)s1,i
Cc1c(Cl)cccc1NC(=O)CN1CCN(CCO)CC1,i
C=CCn1cc(/C=N\NC(=O)c2cc3c(ccc4ccccc43)o2)c2ccccc21,i
CCOC(=O)c1cc2c(ccn2C)n1CC(=O)N1CCN(c2ccccc2)CC1,1.1
CC(C)OC(=O)c1c(F)c(F)c(N2CCOCC2)c(F)c1F,i
COc1ccccc1-n1cnc2cc(C(=O)NCC3CCCO3)ccc21 (configuration not stated),i
C=CCN(CC(=O)NCc1ccccc1)C(=O)c1csnn1,0.5
COc1ccc(OCc2nnc(SC3CCOC3=O)n2-c2ccccc2)cc1 (configuration not stated),0.0
CCOC(=O)C1=C(CC)OC(N)=C(C#N)C1c1ccc(OC)cc1OC (configuration not stated),i
O=c1[nH]c(=O)n(Cc2ccco2)c2c1C(C(F)(F)F)(C(F)(F)F)N=C(CCc1ccccc1)N2,i
Cc1nnc(C)n1/N=C/c1cccn1C,i
CCN(CC)C(=O)CSc1ncnc2sc(-c3ccccc3)cc12,i
C=CCn1c(SCC(=O)Nc2ccccc2)nc2scc(-c3cccs3)c2c1=O,i
c1ccc(N2CCN(c3nnc(Cc4cccnc4)c4ccccc34)CC2)nc1,0.7
O=C(Cc1ccc(Cl)cc1)Nc1cccc(-c2nnc(-c3ccco3)o2)c1,i
O=C(CSc1ncnc2ccccc12)Nc1ccc2c(c1)OCO2,1.1
Cc1ccc(NC(=O)OCc2cn(-c3ccc(Cl)cc3)nn2)cc1,i
CCOc1ccc(C(=O)N2CCc3cc(OC)c(OC)cc3C2)cc1OCC,2.4
CCNc1nc(CC)nc2c1oc1ccccc12,0.2

# Random excerpt: 7 records from the list.
molecule,H5N1 CPE
Cc1ccc(C2SCC(=O)Nc3c2c(=O)[nH]n3C2CCOC(C)(C)C2)cc1 (configuration not stated),i
O=c1[nH]c2ccc(Br)cc2c(-c2ccccc2)c1N1CCOCC1,4.7
CCc1ccc(N2CC(C(=O)NCc3ccc4c(c3)OCO4)CC2=O)cc1 (configuration not stated),i
COC(=O)c1ccccc1NC(=O)Cn1cc(Br)cn1,i
O=C(Cn1c(NCCO)nc2ccccc21)NCCc1ccc(F)cc1,0.3
Cc1ccc(-c2n[nH]c(=S)n2/N=C/c2cc3c(cc2[N+](=O)[O-])OCO3)cc1,1.9
Cc1ccc(CNC(=O)CCNC(=O)Cn2ccc3ccccc3c2=O)cc1,i

# (further entries)
molecule,H5N1 CPE
OCCN1CCN(C(=S)NCCc2ccccc2)CC1,0.2
Cc1nc(N2CCN(C)CC2)c2sc(=S)n(C)c2n1,1.7
O=C(O)Cc1coc(-c2ccc(F)cc2)n1,i
COCCn1nnnc1C(c1cccc(OC)c1OC)N1CCN(C2CCCCC2)CC1 (configuration not stated),i
c1ccc(OCc2nn3c(Cn4nnc5ccccc54)nnc3s2)cc1,0.2
CC(=O)Nc1ccc(S(=O)(=O)N2CCN(C34CC5CC(CC(C5)C3)C4)CC2)cc1,0.7
N#Cc1cc2c(nc1SCC(=O)Nc1sc3c(c1C#N)CCC3)CCC2,i
COC(=O)c1c(-c2cccc3ccccc23)csc1NC(=O)Cc1ccc(OC)c(OC)c1,i
Cc1oc(-c2ccccc2)cc1C(=O)Nc1cccc(C(=O)O)c1,0.2
CCC(CC)NC(=O)C1CCN(S(=O)(=O)c2cccs2)CC1,0.5
CCc1nc(SCc2ccc(C(=O)OC)o2)c2c(=O)n(C)c(=O)n(C)c2n1,1.2
CCN(CC)c1ccc(CC(=O)NC(C)Cc2ccccc2)cc1 (configuration not stated),2.4
Cc1occc1-c1nnc(SCC(=O)NCCc2ccccc2)n1Cc1ccccc1,i
O=C(NCc1ccc(Cl)cc1)c1cc2ccccn2n1,0.1
Cc1cc(C)n2c(SCc3ccccc3Cl)nnc2n1,0.2
C=CCSc1ncccc1C(=O)NCc1ccc(C)cc1,i
CC(NC(=O)C1CC2CCCC(C1)C2=O)c1ccccc1 (configuration not stated),i
COc1ccc(N(C)S(=O)(=O)c2cccc(C(=O)Nc3ccc(-n4cnnn4)cc3)c2)cc1,i
CCN(C(=O)Cc1ccc(Br)cc1)C1CCCCC1,1.6
O=C1Cn2c(nc3ccccc32)-c2ccccc2N1,1.7
N#C/C(=C/c1ccc(C(=O)O)cc1)C(=O)NCc1ccccc1,i
Cc1ccccc1Cn1c(=O)n(CCCC(=O)NCc2ccco2)c(=O)c2ccccc21,i
O=[N+]([O-])c1ccc([C@H](O)[C@H](CO)N=Cc2ccccc2O)cc1,0.8
CC(C)CNC(=O)c1cc2nc3c(c(C(F)(F)F)n2n1)CCc1ccccc1-3,i
O=S(=O)(Cc1ccc(Cl)cc1)Nc1ccc2c(c1)OCO2,i
Cc1onc(-c2ccccc2Cl)c1C(=O)NCc1cccs1,1.2
COC(=O)C1=C(C)N(C)C(=O)/C1=C\c1ccco1,2.3
CC(C)n1cc(/C=C2/SC(=O)N(CC(=O)N3CCCC3)C2=O)c2ccccc21,i
Nc1c(C(=O)NCCN2CCOCC2)c2nc3ccccc3nc2n1Cc1ccco1,i
CCOC(=O)c1nn(-c2c(C)n(C)n(-c3ccccc3)c2=O)cc1O,i
Cc1ccccc1-c1coc2cc(O)ccc2c1=O,i
CC(=O)OCCN(Cc1ccccc1)Cc1ccc2c(c1)OCO2,i
O=C(N/N=C/C1C(c2ccccc2)C1(Cl)Cl)c1cccc(Br)c1 (configuration not stated),1.4
O=C(O)CN(Cc1ccccc1)S(=O)(=O)c1ccc(F)cc1,0.0
COCn1c(=O)c2c(nc(SC3=NCCS3)n2Cc2ccccc2C)n(COC)c1=O,2.4
CCOC(=O)N1CCN(c2c(NCc3ccc(Cl)cc3)c(=O)c2=O)CC1,i
CCC(=O)Nc1ccc(S(=O)(=O)NCc2ccco2)cc1,1.5
Cc1ccccc1Cn1ccc(NC(=O)c2nc3ncccn3n2)n1,i
O=C(NCCCN1CCCCCC1)c1ccc(CS(=O)(=O)Cc2ccccc2F)o1,0.7
CCc1ccc(NC(=O)COn2nnc3ccc(S(=O)(=O)N(C)C)cc32)cc1,1.5
